# Screens: PubChem, Broad Institute
# Vaccinia stage – Vaccinia orthopox stage-specific inhibition | Vaccinia-infected cells, mCherry/Venus stage reporter fluorescence; active compounds read low; some inactives read as strong as hits | activity change (mCherry), % (no concentration beside the values) | 0.01% of 89,000 active | AID 1053133;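 active means mCherry past -33% and 40 or more points under the early reporter, replicates agreeing; inconclusive means past -33% without that gap or agreement; tested in A549 cells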;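 further: scaled between vehicle wells and reference inhibitor wells; 23 nL library stock went into each well; one replicate is shown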
# Vaccinia stage Venus – also measured in Vaccinia stage; calls as there; activity change (Venus), %; measured here: Venus reporter, other viral stage;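 negative = less Venus signal; first of two replicates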
# The depositor's hits bear a star; ? = inconclusive; . = not tested or not shown; & = joins results of further samples. This is a subset (hit frequency here may not be typical).
SMILES,Vaccinia stage,Vaccinia stage Venus
O=C(C[C@@H]1CC[C@@H](NS(=O)(=O)c2ccccc2)[C@@H](CO)O1)NCc1ccncn1,4.3,9.9
C[C@@H]1CN([C@H](C)CO)C(=O)c2cccc(NC(=O)c3nc4ccccc4s3)c2O[C@@H]1CN(C)S(=O)(=O)c1ccc(Cl)cc1,-33.1,-28.0
C[C@H](CO)N1C[C@H](C)[C@H](CN(C)S(=O)(=O)c2ccc(F)cc2)Oc2ccc(NC(=O)Cc3cn(C)c4ccccc34)cc2C1=O,-7.0,-6.5
C[C@H](CO)N1C[C@H](C)[C@H](CN(C)Cc2ccc3c(c2)OCO3)Oc2c(NC(=O)Nc3cccc4ccccc34)cccc2C1=O,-7.3,-7.1
C[C@@H]1CCCCO[C@H](CN(C)Cc2ccc(Cl)c(Cl)c2)[C@@H](C)CN([C@@H](C)CO)C(=O)c2cc(NS(C)(=O)=O)ccc2O1,?,.
CC(C)NC(=O)N(C)C[C@H]1Oc2ccc(NS(=O)(=O)c3cn(C)cn3)cc2C(=O)N([C@H](C)CO)C[C@H]1C,14.6,2.8
CO[C@@H]1CN(C)C(=O)c2ccc(NC(=O)NC(C)C)cc2OC[C@H](C)N(CCC(F)(F)F)C[C@H]1C,-9.0,-3.5
C[C@H](CO)N1C[C@H](C)[C@@H](CN(C)S(=O)(=O)c2cccc(F)c2)Oc2ncc(C#CC3CCCC3)cc2C1=O,?,.
C[C@@H]1CN([C@@H](C)CO)C(=O)c2cc(C#Cc3ccccc3F)cnc2O[C@H]1CN(C)C(=O)Cc1ccccc1,-17.5,-22.4
CC(C)[C@H](C)NC(=O)N(C)C[C@H]1OCc2ccccc2-c2c(n(C)c3ccccc23)C(=O)N([C@@H](C)CO)C[C@@H]1C,-27.0,-25.8
COc1cccc(NC(=O)N(C)C[C@@H]2Oc3cc(-c4ccccc4OC)ccc3S(=O)(=O)N([C@@H](C)CO)C[C@@H]2C)c1,-24.7,-15.6
Cc1noc(C)c1NC(=O)Nc1ccc2c(c1)CC(=O)N([C@@H](C)CO)C[C@H](C)[C@@H](CN(C)C(=O)NC1CCCCC1)O2,5.0,-5.7
O=C(C[C@H]1CC[C@@H](NC(=O)C2CCC2)[C@@H](CO)O1)NC1CCC1,-10.3,5.2
CNC[C@H]1Oc2ccc(NC(=O)CCN3CCOCC3)cc2C(=O)N([C@H](C)CO)C[C@@H]1C,13.1,7.0
C[C@@H]1CN([C@@H](C)CO)C(=O)Cc2cc(NS(=O)(=O)c3cccs3)ccc2O[C@@H]1CN(C)S(C)(=O)=O,0.3,-4.1
C[C@H]1CN([C@@H](C)CO)C(=O)Cc2cc(NS(=O)(=O)c3ccc(Cl)cc3)ccc2O[C@@H]1CN(C)C(=O)Nc1cccc2ccccc12,17.5,10.9
C[C@H]1CN([C@@H](C)CO)C(=O)CCCn2cc(nn2)CO[C@@H]1CN(C)C(=O)NC1CCCCC1,12.0,4.1
O=C(C[C@@H]1CC[C@@H]2[C@H](COC[C@@H](O)CN2C(=O)c2cnccn2)O1)NCc1ccc(F)cc1,7.4,8.7
CCS(=O)(=O)N1CCCCN2[C@@H](CO)[C@@H](c3ccc(-c4ccc(C#N)cc4)cc3)[C@@H]2C1,-9.6,0.3
CC(C)NC(=O)N(C)C[C@H]1OCCCC[C@@H](C)Oc2ccc(NC(=O)Nc3ccc(F)cc3)cc2C(=O)N([C@@H](C)CO)C[C@H]1C,3.5,2.5
N#C[C@H]1[C@@H](c2ccc(-c3ccncc3)cc2)[C@@H](CO)N1C(=O)C1CCC1,-4.7,-2.8
O=C(Nc1ccc2c(c1)[C@H]1C[C@@H](CC(=O)N3CCCCC3)O[C@H](CO)[C@H]1O2)c1ccc2c(c1)OCO2,9.9,3.1
COc1cccc(S(=O)(=O)N[C@H]2C=C[C@H](CC(=O)NCc3ccccc3)O[C@@H]2CO)c1,19.1,5.3
C[C@H](CO)N1C[C@H](C)[C@H](CN(C)C(=O)Nc2ccc3c(c2)OCO3)Oc2c(NS(=O)(=O)c3ccccc3)cccc2C1=O,3.8,6.9
CCCN(C)C[C@H]1Oc2cc(C#CC3(O)CCCC3)ccc2S(=O)(=O)N([C@H](C)CO)C[C@H]1C,-7.8,-7.8

# A portion taken from the entries so far, as a working copy:
SMILES,Vaccinia stage,Vaccinia stage Venus
C[C@H](CO)N1C[C@H](C)[C@H](CN(C)C(=O)Nc2ccc3c(c2)OCO3)Oc2c(NS(=O)(=O)c3ccccc3)cccc2C1=O,3.8,6.9
CCCN(C)C[C@H]1Oc2cc(C#CC3(O)CCCC3)ccc2S(=O)(=O)N([C@H](C)CO)C[C@H]1C,-7.8,-7.8

# Quoted from the listing.
# `O=C(Nc1ccc2c(c1)[C@H]1C[C@@H](CC(=O)N3CCCCC3)O[C@H](CO)[C@H]1O2)c1ccc2c(c1)OCO2` – Vaccinia stage: 9.9
# `CCS(=O)(=O)N1CCCCN2[C@@H](CO)[C@@H](c3ccc(-c4ccc(C#N)cc4)cc3)[C@@H]2C1` – Vaccinia stage: -9.6
# `C[C@H](CO)N1C[C@H](C)[C@H](CN(C)Cc2ccc3c(c2)OCO3)Oc2c(NC(=O)Nc3cccc4ccccc34)cccc2C1=O` – Vaccinia stage: -7.3
# `CC(C)NC(=O)N(C)C[C@H]1OCCCC[C@@H](C)Oc2ccc(NC(=O)Nc3ccc(F)cc3)cc2C(=O)N([C@@H](C)CO)C[C@H]1C` – Vaccinia stage: 3.5

# Next section.
SMILES,Vaccinia stage,Vaccinia stage Venus
Cc1cc(C(=O)Nc2ccc3c(c2)C(=O)N(C)[C@@H]2CC[C@@H](CC(=O)N[C@H](C)c4ccccc4)O[C@@H]2CO3)no1,-4.3,2.0
COCC(=O)Nc1ccc2c(c1)C(=O)N(C)C[C@@H](OC)[C@H](C)CN(C(=O)c1cccnc1)[C@H](C)CO2,14.8,11.3
C[C@H](CO)N1C[C@H](C)[C@@H](CN(C)Cc2ccc(C(F)(F)F)cc2)Oc2ccc(NS(=O)(=O)c3ccc(Cl)cc3)cc2CC1=O,?,.
C[C@H]1CN([C@@H](C)CO)S(=O)(=O)c2ccc(-c3ccncc3)cc2O[C@@H]1CN(C)C(=O)CC1CC1,4.9,4.3
COc1ccc(S(=O)(=O)N(C)C[C@@H]2OCCCC[C@H](C)Oc3ccc(NC(=O)Nc4ccc(F)cc4)cc3C(=O)N([C@@H](C)CO)C[C@@H]2C)cc1,-20.3,-12.1
C/C=C/c1cnc2c(c1)C(=O)N([C@H](C)CO)C[C@@H](C)[C@H](CN(C)C(=O)C1CCCCC1)O2,15.6,17.4
C[C@@H]1CN([C@@H](C)CO)C(=O)c2cc(-c3ccc(F)cc3)cnc2O[C@@H]1CN(C)S(C)(=O)=O,13.6,12.0
COCCNC(=O)C[C@@H]1C[C@H]2c3cc(NC(=O)CC4CC4)ccc3O[C@H]2[C@H](CO)O1,3.2,4.9
O=C(Nc1cc(F)ccc1F)N1CCCCN2[C@H](CO)[C@@H](c3ccc(-c4cncnc4)cc3)[C@H]2C1,48.6,12.8
O=C(CCN1CCCCC1)N[C@H]1C=C[C@@H](CC(=O)N2CCC(Cc3ccccc3)CC2)O[C@H]1CO,-3.0,-0.9
C[C@@H]1CN([C@H](C)CO)C(=O)c2cc(NC(=O)CCC(F)(F)F)ccc2O[C@H]1CN(C)S(=O)(=O)c1ccc(F)cc1,0.4,0.1
C[C@@H]1CN([C@@H](C)CO)S(=O)(=O)c2ccc(C#CC(C)(C)O)cc2O[C@H]1CN(C)C(=O)CN(C)C,14.6,5.6
COCC(=O)N1CC(=O)N2[C@@H](CO)[C@H](c3ccc(C#CC4CC4)cc3)[C@@H]2C1,2.9,10.5
COc1ccc(NC(=O)N(C)C[C@@H]2OCCCC[C@H](C)Oc3ccc(NS(=O)(=O)c4ccc(F)cc4)cc3C(=O)N([C@@H](C)CO)C[C@@H]2C)cc1,-17.1,-24.6
COCC(=O)N(C)C[C@@H]1Oc2cc(-c3ccccc3)ccc2S(=O)(=O)N([C@@H](C)CO)C[C@@H]1C,6.1,-7.0
COc1ccc(NC(=O)Nc2ccc3c(c2)CC(=O)N([C@@H](C)CO)C[C@@H](C)[C@@H](CN(C)Cc2ccncc2)O3)cc1,19.6,20.2
O=C(Nc1ccc(F)cc1)N1C[C@H]2[C@@H](c3ccccc31)[C@@H](CO)N2C(=O)Cc1cccnc1,5.9,8.4
COc1ccc(C#Cc2ccc([C@H]3[C@H]4CN(S(=O)(=O)c5cn(C)cn5)CCCCN4[C@H]3CO)cc2)cc1,?,.
O=C(CC(F)(F)F)N1C[C@H]2[C@@H](c3ccccc31)[C@@H](CO)N2C(=O)C1CC1,-1.6,1.9
CCCN(C)C[C@H]1Oc2ncc(Br)cc2C(=O)N([C@@H](C)CO)C[C@@H]1C,9.8&3.4,7.2&4.2
CCCC#Cc1cnc2c(c1)C(=O)N([C@@H](C)CO)C[C@H](C)[C@@H](CN(C)C(=O)Nc1ccccc1F)O2,-7.0,-7.4
CCCC#Cc1ccc2c(c1)O[C@H](CN(C)Cc1cncnc1)[C@@H](C)CN([C@@H](C)CO)S2(=O)=O,?,.
C[C@H]1CCCCO[C@@H](CN(C)C(=O)c2ccccc2)[C@@H](C)CN([C@@H](C)CO)C(=O)c2cc(NS(=O)(=O)c3cn(C)cn3)ccc2O1,18.0,25.0
COc1cccc(NC(=O)C[C@H]2CC[C@@H]3[C@@H](COc4ccc(NC(=O)C5CCCCC5)cc4C(=O)N3C)O2)c1,-28.5,-17.3
COCC#Cc1ccc([C@H]2[C@H](CO)N3CCCCN(C(=O)CN(C)C)C[C@@H]23)cc1,6.8,-2.2
SMILES,Vaccinia stage,Vaccinia stage Venus
COC(=O)C[C@H]1C[C@@H]2c3cc(NS(C)(=O)=O)ccc3O[C@@H]2[C@H](CO)O1,-5.8,-0.4
COc1ccc(NC(=O)N(C)C[C@H]2Oc3ccc(NS(=O)(=O)c4c(C)noc4C)cc3C(=O)N([C@@H](C)CO)C[C@H]2C)cc1,32.9,36.3
Cc1noc(C)c1NC(=O)N(C)C[C@@H]1OCCCC[C@@H](C)Oc2ccc(NC(=O)C3CCCCC3)cc2C(=O)N([C@@H](C)CO)C[C@@H]1C,15.4,-6.0
COc1ccc(NC(=O)Nc2ccc3c(c2)C(=O)N([C@@H](C)CO)C[C@H](C)[C@@H](CN(C)C(=O)Nc2ccc(C(F)(F)F)cc2)OCCCC[C@H](C)O3)cc1,-11.4,-4.4
COc1ccccc1NC(=O)N[C@@H]1CC[C@@H](CC(=O)N2CCC(Cc3ccccc3)CC2)O[C@H]1CO,-18.6,-6.5
COc1ccc(NC(=O)Nc2cccc3c2O[C@@H](CN(C)C(=O)Nc2c(C)noc2C)[C@@H](C)CN([C@@H](C)CO)C3=O)cc1,10.1,4.3
C[C@@H]1CN([C@H](C)CO)C(=O)c2cc(C3=CCCC3)cnc2O[C@H]1CN(C)C(=O)CN1CCOCC1,13.9,14.6
Cc1ccc(S(=O)(=O)N(C)C[C@H]2Oc3ccc(NC(=O)Cn4cnnn4)cc3C(=O)N([C@@H](C)CO)C[C@H]2C)cc1,0.6,-0.1
C[C@@H]1CN([C@H](C)CO)C(=O)Cc2cc(NC(=O)Nc3ccccc3)ccc2O[C@H]1CN(C)C(=O)Nc1ccc(F)cc1,17.2,13.8
COc1ccc(CN(C)C[C@H]2OCCCC[C@@H](C)Oc3ccc(NS(=O)(=O)c4ccccc4)cc3C(=O)N([C@H](C)CO)C[C@H]2C)cc1,?,.
CN(C)C(=O)c1ccc(-c2ccc([C@H]3[C@@H](CO)N4C(=O)CN(C(=O)C5CCCC5)C[C@H]34)cc2)cc1,1.0,5.4
CN1C(=O)c2cc(NC(=O)c3cnccn3)ccc2OC[C@H]2O[C@H](CC(=O)N[C@@H]3CCN(Cc4ccccc4)C3)CC[C@@H]21,13.1,0.1
C[C@@H]1CN([C@@H](C)CO)C(=O)c2cc(C3=CCCC3)cnc2O[C@H]1CN(C)C(=O)c1cccnc1,20.3,19.6
CN1C(=O)c2cc(NC(=O)c3cccs3)ccc2OC[C@H]2O[C@@H](CC(=O)NCCN3CCCCC3)CC[C@H]21,-6.0,-11.5
O=C(C1CC1)N1CC2(C1)[C@@H](c1ccccc1)[C@@H](CO)N2Cc1nccs1,17.5,13.2
C[C@H](CO)N1C[C@H](C)[C@H](CN(C)C(=O)Nc2ccc(F)cc2)Oc2ccc(NC(=O)C3CC3)cc2CC1=O,17.4,0.1
C[C@@H]1CN([C@@H](C)CO)S(=O)(=O)c2ccc(C3=CCCCC3)cc2O[C@H]1CN(C)C(=O)CC1CC1,-19.0,-10.8
COc1ccc(CN(C)C[C@@H]2Oc3c(NC(=O)CCCCCC(=O)Nc4ccccc4N)cccc3C(=O)N([C@@H](C)CO)C[C@H]2C)cc1,-30.5,-17.1
COc1cccc(C(=O)Nc2ccc3c(c2)OC[C@@H](C)N(CC2CC2)C[C@@H](C)[C@@H](OC)CN(C)C3=O)c1,-3.3,0.0
O=C(c1ccncc1)N1CC2(C1)[C@@H](c1ccccc1)[C@@H](CO)N2CC1CC1,2.8,11.9
OC[C@@H]1[C@@H](c2ccccc2)C2(CN(Cc3nccs3)C2)N1Cc1ccncc1,6.0,6.5
COC(=O)C[C@H]1C=C[C@H](NC(=O)c2ccccc2)[C@@H](CO)O1,-2.0,2.5
C[C@@H]1CN([C@H](C)CO)C(=O)Cc2cc(NS(C)(=O)=O)ccc2O[C@@H]1CN(C)CC1CC1,12.4,6.5
C[C@H]1CN([C@@H](C)CO)C(=O)Cc2cc(NC(=O)CCN3CCOCC3)ccc2O[C@H]1CN(C)Cc1ccc(-c2ccccc2)cc1,-7.2,-7.9
COC(=O)[C@@H]1[C@@H](CO)[C@@H]2Cn3c(ccc(/C=C/c4ccccc4)c3=O)[C@H]1N2C(=O)C1CC1,13.5,11.1
C[C@@H]1CN([C@H](C)CO)C(=O)c2cc(C#CCc3ccccc3)cnc2O[C@H]1CN(C)Cc1ccccn1,-4.2,-5.3
C[C@@H]1CN([C@@H](C)CO)C(=O)c2cc(NC(=O)CCC(F)(F)F)ccc2O[C@H]1CN(C)Cc1ccc(C(F)(F)F)cc1,-2.6,0.2
O=C(C1CC1)N1CC[C@@H]2[C@H](CO)Nc3ccc(-c4cccc(F)c4)cc3[C@@H]21,-5.1,0.7
